Compound activity (PubChem)
Mtb betalactam: beta-lactam sensitization of Mtb H37Rv; inhibition, % at 25 µM; AID 434955; hit rate 0.27% among 330,000; M. tuberculosis H37Rv growth with meropenem, percent inhibition; hits of this screen are not shown here;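 active = about 74% or more and at least 40 points above the plate without the antibiotic, then above 30% in a dose series; inconclusive = first-round hits that could not be retested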;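 also: growth measured after seven days incubation then overnight dye step; 0% = bacteria only wells and 100% = bacteria with antibiotic; twin plates without the antibiotic show which effects depend on it; some results filed as inactive read as strong as hits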
YopH inh: YopH (Yersinia) phosphatase inhibition. fluorescence Ex485/Em525. inhibition, %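 (about 10 µM by stock and volumes)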. hit rate 0.16% among 140,000. AID 898;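 active = inhibition of 50% or more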;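 also: controls were vehicle for no effect and minimum signal wells for full effect; inactives centre near -20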
RecA intein inh: Mtb RecA intein splicing inhibition. cell-free RecA intein splicing, fluorescence. inhibition, %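 (about 9 µM by stock and volumes)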. hit rate 0.75% among 290,000; in the data active = inhibition above about 30%; inconclusive = no clear call, values can overlap the other calls;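 also: 0% = vehicle wells and 100% = reference inhibitor control wells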
Target sequence (P9WHJ3 whole entry, looked up): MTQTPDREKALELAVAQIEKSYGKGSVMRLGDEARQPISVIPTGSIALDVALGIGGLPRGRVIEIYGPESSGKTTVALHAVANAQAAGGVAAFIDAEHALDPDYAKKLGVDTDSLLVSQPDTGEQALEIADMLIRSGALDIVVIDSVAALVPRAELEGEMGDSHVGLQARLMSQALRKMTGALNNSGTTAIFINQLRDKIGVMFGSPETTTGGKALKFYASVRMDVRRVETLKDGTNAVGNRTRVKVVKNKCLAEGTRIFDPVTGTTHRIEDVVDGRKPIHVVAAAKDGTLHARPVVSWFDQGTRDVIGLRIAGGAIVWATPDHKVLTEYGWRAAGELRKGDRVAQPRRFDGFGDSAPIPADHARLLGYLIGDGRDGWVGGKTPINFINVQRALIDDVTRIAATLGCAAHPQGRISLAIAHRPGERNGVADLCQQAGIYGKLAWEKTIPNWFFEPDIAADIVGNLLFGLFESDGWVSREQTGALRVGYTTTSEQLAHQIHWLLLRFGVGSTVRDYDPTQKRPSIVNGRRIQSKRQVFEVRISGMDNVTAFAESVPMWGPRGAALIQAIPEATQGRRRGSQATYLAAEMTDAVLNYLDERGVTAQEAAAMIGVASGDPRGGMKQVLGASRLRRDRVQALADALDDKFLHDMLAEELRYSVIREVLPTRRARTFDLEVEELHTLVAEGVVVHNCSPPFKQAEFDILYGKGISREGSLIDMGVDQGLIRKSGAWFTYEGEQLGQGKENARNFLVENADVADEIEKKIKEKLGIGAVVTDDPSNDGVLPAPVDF
Arbovirus anti: blocks arbovirus infection | hit rate 0.37% among 200,000 | arbovirus infection cell-based antiviral screen | inhibition, % at 10 µM;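 active = inhibition from about 30%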;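 also: bluetongue infection of BSR cells; cell survival read as ATP light after 72 h; 0% = infected wells without compound and 100% = uninfected wells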
Mtb growth: M. tuberculosis H37Rv growth inhibitors, H37Rv strain (AID 1626); hit rate 0.95% among 220,000; inhibition, % at 10 µM; hits with a dose series show IC50 in µM; M. tuberculosis H37Rv growth inhibition; higher % means a stronger effect;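 active = confirmed in a dose series; inconclusive = inhibition above 80% but not taken into the dose series; inactive = below 80% or under 30% at every dose of the series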;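 also: bacteria incubated seven days before Alamar blue readout; 0% = bacteria only wells and 100% = bacteria with antibiotic wells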
Arbovirus anti repeat: recorded beside Arbovirus anti, whose call it bears; inhibition, %; measured here: 10K subset replicate screen; many hits read low in the repeat;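 first of two repeat runs on a subset; 0% = infected and 100% = uninfected wells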
Starred values were filed as active, the others as inactive; ? = inconclusive; nt = no result given. An excerpt, so the mix of outcomes need not match the whole.

Preview, 3 compounds:
SMILES	Mtb betalactam	YopH inh	RecA intein inh	Arbovirus anti	Mtb growth	others
COc1ccccc1C(=O)Nc1ccc2c(c1)OCO2	14	-10	-1.0	-9	2%	Arbovirus anti repeat=-3
O=C(Cc1c[nH]c2ccccc12)OCC(=O)c1ccccc1	-1	-149	3.0	-3	-15%
CCOC(=O)c1ccc(NC(=O)CSc2nc(C)nc3c2c(=O)n(C)c(=O)n3C)cc1	-1	nt	2.3	1	9%

The whole of this part, repeating the preview:
SMILES	Mtb betalactam	YopH inh	RecA intein inh	Arbovirus anti	Mtb growth	others
COc1ccccc1C(=O)Nc1ccc2c(c1)OCO2	14	-10	-1.0	-9	2%	Arbovirus anti repeat=-3
O=C(Cc1c[nH]c2ccccc12)OCC(=O)c1ccccc1	-1	-149	3.0	-3	-15%
CCOC(=O)c1ccc(NC(=O)CSc2nc(C)nc3c2c(=O)n(C)c(=O)n3C)cc1	-1	nt	2.3	1	9%
Cc1cccc(OCC(=O)NCC2CCCO2)c1C (centres undefined)	-2	nt	4.7	-2	-9%
Cc1ccc(NC(=O)CCCn2nc(C)c3c(C)n(-c4ccccc4)nc3c2=O)c(Cl)c1	0	nt	0.5	nt	nt
CCOC(=O)N1CCN(S(=O)(=O)c2ccc(OC)c3ccccc23)CC1	-11	19	-1.4	14	5%
Cc1cc(C(=O)CN2C(=O)CN(C)C2=O)c(C)n1-c1cccc(S(=O)(=O)N2CCOCC2)c1	6	nt	-3.2	12	-8%
COC(=O)c1ccccc1NC(=O)Nc1cccc(C)n1	3	nt	-0.2	11	-1%
CC(C)(C)OC(=O)NN1CC(=O)N2Cc3[nH]c4ccccc4c3C[C@H]2C1=O	5	nt	-0.3	nt	nt
CCCc1sc(N/N=C/c2ccccn2)nc1-c1ccc(F)cc1	100	13	-0.2	-26	?

The list goes on, starting with the last 2 of the part before.
SMILES	Mtb betalactam	YopH inh	RecA intein inh	Arbovirus anti	Mtb growth	others
CC(C)(C)OC(=O)NN1CC(=O)N2Cc3[nH]c4ccccc4c3C[C@H]2C1=O	5	nt	-0.3	nt	nt
CCCc1sc(N/N=C/c2ccccn2)nc1-c1ccc(F)cc1	100	13	-0.2	-26	?
Cc1ccc(-c2nc(CSc3nc4ccccc4c(=O)n3CCO)cs2)cc1	0	-30	4.3	-20	2%
O=C(NC1CCCC1)C(c1cccnc1)N(C(=O)c1ccco1)c1ccc(F)cc1 (centres undefined)	1	nt	1.5	nt	nt
O=C(N/N=C/c1ccc(Cl)c([N+](=O)[O-])c1)c1ccc2nc[nH]c2c1	-4	-38	5.6	8	-10%
COc1cccc(Nc2nc(-c3ccc(O)cc3)cs2)c1	22	12	7.9	-7	2%
Nc1cc(S(=O)(=O)O)cc([N+](=O)[O-])c1O	4	nt	-3.4	3	1%
O=C(C[n+]1cccc(/C=N/O)c1)N1CCCc2ccccc21	5	nt	-1.3	12	3%
CCCNC(=O)NCc1ccc(N2CCCC2=O)cc1	-10	-31	-1.4	4	-13%
COc1cc(CNCc2ccc(C)cc2)cc(OC)c1OC	4	nt	1.6	nt	nt
Cc1cc(=O)oc2cc(OCC(=O)N3CC[C@@]4(O)CCCC[C@H]4C3)ccc12	-1	nt	-3.0	nt	nt
O=C(CN=C1NS(=O)(=O)c2ccccc21)OCC(=O)c1ccccc1	2	nt	-2.8	nt	4%
COc1ccc(/C=C2\SC(=O)N(CCNC(=O)Cc3coc4cc(OC)ccc34)C2=O)cc1	-1	-13	1.2	5	-2%
Cn1c(=O)[nH]c(=O)c2c1nc(CN1CCN(c3ccc(F)cc3)CC1)n2CCc1ccccc1	3	31	-0.4	3	0%
O=C(CNc1cccc(S(=O)(=O)N2CCCC2)c1)Nc1ccc(F)c(F)c1	-15	nt	0.6	nt	nt
COc1cc(C2=NOC(C(=O)NCc3ccco3)C2)cc(OC)c1OC (centres undefined)	0	5	-2.1	-15	-3%
CN(C)S(=O)(=O)c1ccc(NC(=O)N2CCOCC2)cc1	-10	nt	1.8	2	4%
CC1=CCC[C@@H]2[C@@](C)(CC/C(C)=C/C(=O)O)[C@H](C)CC[C@@]12C	-1	-25	17	-3	-16%
COc1ccc(NS(=O)(=O)c2ccc(NC(=S)NC(=O)c3cccc(F)c3)cc2)nn1	-2	-38	-1.7	-9	1%
O=C(Cc1ccccc1)NNC(=O)C1CC=CCC1 (centres undefined)	-1	nt	-1.7	nt	nt
Cc1nn(-c2ccccc2)c2sc(C(=O)N(CC(=O)NC(C)(C)C)Cc3ccco3)cc12	-4	-43	5.0	-23	19%
CC(C)CCNC(=O)c1cc2c(=O)[nH]c3ccccc3c2s1	-3	nt	1.8	nt	nt
C[C@@H](C(=O)N1CCNCC1)n1cc(CCCN=C(N)N)nn1	-9	nt	-2.4	8	-16%
CCCN(CC(=O)Nc1ccccc1C)C(=O)c1cccc(S(=O)(=O)N2CCN(c3ccccc3)CC2)c1	4	nt	0.1	nt	nt
O=[N+]([O-])c1ccc(O)c(/C=N/Nc2ccccn2)c1	89	-17	-8.2	-23	?
CCOC(=O)Cc1c(C)nc2c(-c3ccc(Cl)cc3)c(C)nn2c1C	4	nt	nt	1	6%
CC12CCC(=O)N1C(C(=O)Nc1ccc(Cl)c(S(=O)(=O)N3CCCCC3)c1)CS2 (centres undefined)	-10	nt	2.0	nt	nt
CCCCOC(=O)CSc1nnc(N)s1	?	-21	0.1	5	-2%	Arbovirus anti repeat=10
COC(=O)c1cc(N=Nc2c(C)[nH]c3ccccc23)cc(C(=O)OC)c1	-4	nt	-0.4	nt	-3%
NC(=O)CSc1nc2ccccc2c(=O)n1-c1ccccc1	0	nt	-0.5	nt	nt
COc1ccc2oc(-c3cccc(NC(=O)CSc4ccc(Cl)cc4)c3)nc2c1	-3	-28	-1.1	8	0%
COc1ccc(C(=O)N(C)C2CCCN(Cc3ccccc3F)C2)cc1C (centres undefined)	-8	nt	2.0	nt	nt
Cc1ccc(C(=O)NC(=S)N2CC(C)OC(C)C2)cc1[N+](=O)[O-] (centres undefined)	92	-22	-4.2	1	nt
Cc1ccc(S(=O)(=O)c2c(C)nn(C(C)(C)C)c2OC(=O)c2cccs2)cc1	1	-37	5.3	-16	-4%
CC(NC(=O)C1CC12CCC2)c1ccccc1 (centres undefined)	-5	-21	-0.1	2	-3%
COc1cccc(C(=O)/C=C/Nc2ccc(S(=O)(=O)Nc3ncccn3)cc2)c1	90	1	-5.1	-13	8%
CN(C)S(=O)(=O)Oc1ccccc1C(=O)Nc1ccc(F)cc1F	-6	nt	-0.7	-4	-3%
O=C(Nc1ccccc1NC(=O)C1CCCO1)c1ccco1 (centres undefined)	-2	nt	-0.1	3	-3%
C=CCOCCN1C(=O)C2C3C=CC(C2C1=O)C1C2C(=O)N(CCOCC=C)C(=O)C2C31 (centres undefined)	1	nt	2.0	3	3%
COc1cc(NC(=O)COc2ccc(-n3cnnn3)cc2)c(OC)cc1Cl	2	8	2.6	-2	-4%	Arbovirus anti repeat=4
CC(=O)c1cccc(NS(=O)(=O)c2ccc(N/C=C/C(=O)c3ccc(F)cc3)cc2)c1	3	-44	-2.8	2	-4%
Cc1oc2cc3oc(=O)c(CCC(=O)NC4CC4)c(C)c3cc2c1C	7	nt	1.6	nt	nt
S=C(NCc1ccccc1)NCc1ccc(Cl)cc1	6	nt	1.6	nt	nt
Cc1ccc(S(=O)(=O)N2CCCCC2)cc1NC(=O)CSc1nnc(N)s1	5	nt	-2.2	-3	-5%
CCOc1ccc(-c2ccc(SCC(=O)NCC3CCCO3)nn2)cc1 (centres undefined)	3	nt	2.6	-4	3%
O=[N+]([O-])c1ccc2c(c1)[nH]c(=S)n2-c1ccccc1	-4	nt	0.9	-9	-4%
COc1ccc(OC)c(S(=O)(=O)Nc2cc(OC)c(Cl)cc2OC)c1	13	-15	2.1	-9	4%
COC(=O)c1cccc(N(C(=O)CNC(=O)c2ccco2)C(C(=O)NC2CCCC2)c2ccco2)c1 (centres undefined)	-11	-26	1.8	8	-11%
CCOc1ccc(-n2c(Cc3cc(=O)[nH]c(=O)[nH]3)nnc2SCC(=O)Nc2nnc(C)s2)cc1	1	nt	nt	-3	4%
CC(=O)Oc1ccc(/C=C2/SC(=S)N(Cc3ccccc3)C2=O)cc1	5	nt	4.1	nt	nt
COCCCNC(=O)CN(Cc1ccc(Cl)cc1)S(C)(=O)=O	-1	-25	1.3	-1	-4%
O=C(C/C=N\OCc1ccc([N+](=O)[O-])cc1)Nc1ccccc1	49	nt	7.6	1	?

Going on with the list.
SMILES	Mtb betalactam	YopH inh	RecA intein inh	Arbovirus anti	Mtb growth	others
Cc1nn(Cc2ccc(Cl)cc2)c(C)c1NC(=O)C(c1ccccc1)c1ccccc1	-4	-20	12	-24	3%
N#CCNC(=O)c1nn2c(C(F)(F)F)cc(-c3ccccc3)nc2c1Br	4	nt	-2.3	nt	nt
COc1ccccc1NC(=O)CC(NCc1ccccc1)C(=O)O (centres undefined)	3	-34	-1.0	-3	nt
Cc1ccc(NCc2cccnc2)cc1	-12	-20	-1.6	4	-10%
C/C(CC(=O)Nc1ccc(C)c(Cl)c1)=N\NC(=O)Cc1cccs1	84	nt	6.5	nt	?
Cc1ccc(S(=O)(=O)N2CCCN(S(=O)(=O)c3ccc(C)c(C)c3)CC2)cc1C	4	1	nt	4	nt
Cc1ccc(C(=O)NC(=S)Nc2cc(C(F)(F)F)ccc2Cl)cc1	-5	-4	2.1	-26	-6%
O=[N+]([O-])c1cc(-c2ccn[nH]2)ccc1Cl	-2	nt	-3.7	5	4%
CCN1C(=O)S/C(=C\c2ccc(N3CCOCC3)cc2C)C1=O	3	3	-2.2	0	2%
COC(=O)CN1C(=O)N/C(=C/c2cc(OC)c(OC)cc2C)C1=O	-9	nt	-2.8	-4	-9%
COc1ccc(C(=O)N(C)CCCC2CCCC2)cc1OC1CCN(C(C)C)CC1	-2	nt	2.2	nt	nt
COc1cccc(C2=NOC(C(=O)NCc3ccccn3)C2)c1 (centres undefined)	-2	-48	-0.5	4	-8%
Cc1ccc(OC(=O)c2ccc([N+](=O)[O-])cc2Cl)cn1	0	nt	32*	nt	nt
CCC(C)N(C(=O)COC(=O)CNC(=O)c1ccccc1F)C1CCS(=O)(=O)C1 (centres undefined)	0	nt	-0.8	1	-3%
O=S(=O)(c1cc(Cl)ccc1Cl)N1CCN(Cc2ccc3c(c2)OCO3)CC1	-5	0	12	-18	-2%	Arbovirus anti repeat=-9
Cc1ccc(NC(=O)c2ccc(NCCCN3CCOCC3)c([N+](=O)[O-])c2)cc1Cl	30	-18	3.4	-31	11%
CC1=NN(Cc2ccccc2)C(=O)C1	0	3	89*	-6	-11%
CCCNc1c(NC(=O)c2ccc3c(c2)OCO3)c(=O)oc2ccccc12	2	nt	-3.1	nt	nt
CS(=O)(=O)N1CCCC(C(=O)NC2CCCCCCC2)C1 (centres undefined)	-3	-35	1.0	3	0%
O=C(CCCOc1ccc(Cl)cc1Cl)Nc1nnc(C2CC2)s1	-2	nt	0.5	nt	nt
C=CCNC(=O)c1ccc(N(CC=C)S(C)(=O)=O)cc1	3	-16	-1.9	5	-4%
C=C(C)COc1ccc(-c2nc(N)ncc2Oc2ccccc2OCC)c(O)c1	13	-9	-1.1	-3	4%
c1csc(-c2nc(N3CCOCC3)c3ccccc3n2)c1	0	nt	-1.2	nt	nt
O=C(CCSc1ccc(Cl)cc1)N1CCN(c2ncccn2)CC1	-13	-57	0.2	-1	63%
O=C(O)c1c[nH]c2ccc(F)cc2c1=O	-8	nt	-0.7	15	0%
COc1ccc(CCNC(=O)C2CCCN2C(=O)Nc2ccc(Cl)cc2)cc1OC (centres undefined)	-6	nt	0.2	nt	nt
CN(C)c1ccc(-c2cccc(C3CC=CC4C3C(=O)N(Cc3ccccc3)C4c3ccc(C(F)(F)F)cc3)c2)cc1 (centres undefined)	-8	nt	1.0	nt	7%
CCOC(=O)CSc1cc(=O)n(C)c2cc(Cl)ccc12	99	-40	-1.1	-4	nt
Cc1ccc(S(=O)(=O)N(Cc2cc3ccccc3[nH]c2=O)c2cccc(C)c2)cc1	5	nt	0.0	nt	-6%
COc1cc2[nH]c(=O)n(CCC(=O)NC3CCN(Cc4ccccc4)CC3)c(=O)c2cc1OC	nt	-26	-2.0	9	-2%	Arbovirus anti repeat=1
COC(=O)C(CC(C)C)NC(=O)/C=C/c1ccc(Cl)cc1 (centres undefined)	100	nt	3.0	4	3.9µM*
CCC(C)(C)n1nnnc1C(c1ccccn1)N1CCN(c2cccc(OC)c2)CC1 (centres undefined)	-6	-30	nt	-4	-1%
CC1(NC(=O)Nc2cccc3ccccc23)CCS(=O)(=O)C1 (centres undefined)	3	nt	-2.4	nt	nt
Cc1c(/C(O)=C2\C(=O)C(=O)N(CCN(C)C)C2c2cccnc2)cnn1-c1ccccc1 (centres undefined)	1	-41	nt	-1	-5%
CC1CN(C2CCN(S(=O)(=O)c3ccc(F)cc3)CC2)CC(C)O1 (centres undefined)	-24	6	-0.2	-4	-9%
O=C(N1CCN(Cc2ccccc2)CC1)C(Cl)(Cl)Cl	-2	-3	-1.1	-4	-2%
